CDC25B CDK2 inh = primary biochemical HTRF screen for blockers of M-phase inducer phosphatase 2 binding to CDK2/cyclin A; z-score (no concentration beside the values); HTRF CDC25B-CDK2/CyclinA binding, anti-His/anti-Flag; active compounds read high; AID 1259370, 2018; 94,000 tested, 0.72% active; P30305+P24941;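 note: score is relative to mean and SD of negative controls; strong numbers were not always called active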
TAR Tat displ = TAR RNA-Tat peptide displacers, HIV-1, primary screen, biochemical, FRET, FAM/TAMRA-labeled Tat. HIV-1 TAR RNA, Tat peptide displacement FRET; active compounds read high. 100,000 tested, 0.6% active. z-score (no concentration beside the values);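 note: score is relative to mean and SD of negative controls; some compounds called inactive have numbers as strong as hits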
Starred values were filed as active, the others as inactive; / = no result given.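 Rule for the calls: active = z-score from 3 up in half or more of its runs; inactive = the rest.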

Fields: CDC25B CDK2 inh	TAR Tat displ
Cc1cc2n(n1)CCC(=O)N2C(C)C(=O)O (stereo not drawn)
    0.32	1.2
CCn1cc(CCCC(=O)N2CC(C)CC(C)C2)c2ccccc21 (stereo not drawn)
    /	1.7
FC(F)(F)c1ccc(N2CCN(Cn3nnc4ccccc43)CC2)nc1
    -1	/
Cc1cc(N2CCN(c3cc(Cl)ccc3C)CC2)n2nc(-c3ccco3)nc2n1
    /	0.39
CN(C)CCNC(=O)c1cc2c(s1)-c1ccccc1OC2
    0.23	/
CN(C(=O)c1cc2c(=O)n3ccccc3nc2n1C)c1ccccc1
    /	2.5
O=C(Cn1c(-c2cccs2)cc2ccccc21)N1CCCCC1
    -2.5	1.1
Nc1nc(N2CCCCC2)nc(NC2CCCCC2)c1[N+](=O)[O-]
    /	0.94
CCSc1nnc2n(-c3ccccc3OC)c(=O)c3c4c(sc3n12)CCC4
    0.21	/
O=C1NC(=S)C(Nc2ccccc2)S1 (stereo not drawn)
    1.9	0.79
CC(c1ccco1)N(C(=O)Nc1ccccc1)C1CCCCC1 (stereo not drawn)
    /	0.4
CS(=O)(=O)Nc1nc2ccc(NC(=O)c3[nH]nc4c3CCc3ccccc3-4)cc2s1
    /	-0.81
CCOC(=O)c1c(S(=O)(=O)N2CCCC(C(=O)N3CCC(C)CC3)C2)c(C)n(CC)c1C (stereo not drawn)
    /	0.2
NCCCCCCNC(=O)c1c(O)c2c([nH]c1=O)CCCC2
    /	2.1
CN(C(=O)CN1N=NC2C(=O)N(c3ccc(F)cc3)C(=O)C21)c1ccccc1 (stereo not drawn)
    /	1.1
CC(C)(C)C(=O)c1cn(CC(=O)O)c2ccccc12
    -2.4	1.7
NC(C(=O)N1CCc2ccccc21)c1ccccc1 (stereo not drawn)
    /	0.78
CCC(C(=O)NC1CCC(C)CC1)n1nc(C)n2c(cc3sccc32)c1=O (stereo not drawn)
    0.23	0.04
COc1ccc(N2CCN(c3cc(C)c4ccc(O)cc4n3)CC2)cc1
    0.01	0.64
NC(=O)C1CCN(C(=O)/C=C/C(=O)O)CC1
    -1.3	/
O=S(=O)(CCc1ccccc1)NCCc1csc2nc(-c3cccs3)nn12
    /	-0.41
O=C(CSc1nc(-c2ccccc2)nc2cc(=O)[nH]n12)NCc1ccccc1Cl
    /	0
CCc1ccc(CN2CCC(N3CCOCC3)CC2)cc1
    -1.1	/
Cn1c(SCC(=O)NNC(=S)Nc2ccccc2)nnc1-c1ccncc1
    -0.57	/
Cc1cc(C)n(CCc2nc3c4ccccc4nc(SCc4cc(=O)n5ccccc5n4)n3n2)n1
    -1.8	0.26
O=[N+]([O-])c1ccc(N2CCN(S(=O)(=O)c3ccc(F)c(Cl)c3)CC2)nc1
    -2.3	/
CC(=O)NCC(c1ccco1)S(=O)(=O)c1ccc(Cl)cc1 (stereo not drawn)
    /	1.8
COc1ccc(OC)c(CCNC(=O)CCc2nnc3ccc(N4CCCC4)nn23)c1
    /	0.38
COc1cc(CNCc2cccnc2)cc(Cl)c1OCc1cccs1
    -0.18	-0.04
O=C1O[C@@H]2C[C@H]3C[C@@H]2[C@@H]1[C@H]3C(=O)N1CCN(C(=O)c2ccco2)CC1
    -1.8	1.2

Compounds shown so far that have a nitro group on carbon (two):
Fields: CDC25B CDK2 inh	TAR Tat displ
Nc1nc(N2CCCCC2)nc(NC2CCCCC2)c1[N+](=O)[O-]
    /	0.94
O=[N+]([O-])c1ccc(N2CCN(S(=O)(=O)c3ccc(F)c(Cl)c3)CC2)nc1
    -2.3	/

New compounds follow.
Fields: CDC25B CDK2 inh	TAR Tat displ
Cc1nn(S(=O)(=O)c2ccc(C(C)(C)C)cc2)c(C)c1S(=O)(=O)N1CCC(C)CC1
    /	0.27
CSCC[C@@H](C(=O)O)N1Cc2ccccc2C1=O
    -0.12	1.2
CC(C)OC(=O)n1c(=S)oc2ccccc21
    -1.1	1.5
COc1ccc(-n2nnc(-c3nc(-c4ccc(Cl)cc4)no3)c2N)cc1
    /	0.85
CCOC(=O)N1CCC(N2C(=O)c3ccccc3C2Nc2cc(F)ccc2F)CC1 (stereo not drawn)
    1.8	0.89
CCc1ccc(S(=O)(=O)Nc2cccc(-c3ccc(N4CCCC4)nn3)c2)s1
    /	1.4
O=c1c2[nH]c3ccccc3c2ncn1Cc1ccc(F)cc1
    1.6	0.49
COc1ccc(NC(=O)CSc2nc3c(c(=O)n2-c2cc(OC)ccc2OC)SCC3)cc1
    -2	0.42
O=C1CCSc2ccc(S(=O)(=O)NCC3CCN(CCc4cccs4)CC3)cc2N1
    /	1.4
CCc1ccc(S(=O)(=O)N2CCN(c3cc(N4CCCCC4)nc(C)n3)CC2)cc1
    -0.04	1.6
CC(=O)Oc1ccc(C2C(C(=O)OC3CCCCC3)=C(C)NC3=C2C(=O)CCC3)cc1 (stereo not drawn)
    -0.37	0.26
CCCN(CCC)c1c(N2CCN(C(=O)OCC)CC2)c(=O)c1=O
    -1.6	1.4
C=CCNc1nc(NCc2cccc(Cl)c2)c2cnn(C)c2n1
    /	0.88
O=C(CN1C(=O)c2ccccc2S1(=O)=O)NC1CC1
    0.44	1.8
COc1ccc(-c2onc(C)c2C)cc1S(=O)(=O)N1CCN(C)CC1
    /	0.22
CCCCOc1c([N+](=O)[O-])cc([N+](=O)[O-])c2nsnc12
    -0.9	/
O=C(CCc1nc(CSc2nc3ccccc3s2)no1)Nc1ccc(Br)cc1
    /	0.07
O=S(=O)(Nc1ccc(O)cc1)c1ccc(F)cc1
    -1.6	0.91
CCN1CCCC1CN=C1NS(=O)(=O)C(c2ccc(F)cc2)=C1C (stereo not drawn)
    /	-0.34
COC(=O)C(C)Oc1ccc2c(=O)c(-c3ccc(Cl)cc3)c(C(F)(F)F)oc2c1 (stereo not drawn)
    -1.3	0.53
COc1ccc(Cl)cc1NC(=O)N1CCCN(c2nc3cc(F)ccc3n3cccc23)CC1
    /	-3
CCCN1CCN(c2cc3c(cc2F)c(=O)c(S(=O)(=O)c2ccccc2)cn3C)CC1
    /	-1.3
CCOc1ccc2nc(NC3=NCN(CCN4CCOCC4)CN3)nc(C)c2c1
    -1.2	1.4
COc1ccc(C(=O)c2oc3ccccc3c2NC(=O)c2csnn2)cc1Br
    -1.3	-0.68
Cc1nn(-c2nc3ccc(Br)cc3s2)c2c1C(c1cccc(F)c1)CC(=O)N2 (stereo not drawn)
    /	0.88
O=C(CCn1c(=O)oc2ccccc21)NC1=NCCS1
    -1.2	/
O=C(CCN1C(=O)/C(=C/c2ccccc2Cl)SC1=S)Nc1ccc(-c2ccccc2)cc1
    -1.5	/
COc1ccc(N2CSC3=C(C#N)C(c4cccc(Br)c4)CC(=O)N3C2)cc1 (stereo not drawn)
    4.7*	-0.77
CCCN(CCC)S(=O)(=O)c1cc2c(cc1C)N(C)CCO2
    /	2.1
CCN(C(=O)c1cc2c(=O)n3ccccc3nc2n1C)c1ccccc1
    /	2.9

Next records follow.
Fields: CDC25B CDK2 inh	TAR Tat displ
COc1ccc2c(c1)CC(NC(=O)N1CCN(C(=O)c3ccco3)CC1)CO2 (stereo not drawn)
    /	1.1
O=C(c1cnn2c3c(cnc12)CCCCCC3)N1CCN(c2ccccc2)CC1
    /	-0.34
CCNC(=O)c1cc2n(n1)CC(C)(C(=O)NCCC(C)C)N(C)C2=O (stereo not drawn)
    /	-0.55
O=C(NCc1cccn1Cc1ccc(F)cc1)Nc1ccc(F)cc1
    /	0.36
CN(C1CCCCC1)S(=O)(=O)c1cc(F)ccc1CN1C(=O)c2cccnc2C1=O
    /	-0.72
O=C(NCc1ccco1)C1Sc2nnc(-c3ccccc3)n2NC1c1ccccc1 (stereo not drawn)
    -2	-1.5
O=C1c2ccccc2C(Nc2cccnc2)N1c1ccccn1 (stereo not drawn)
    9.9*	-0.14
CC(C(=O)c1ccccc1)n1nnc2sc3c(c2c1=O)CCCC3 (stereo not drawn)
    0.75	0.65
CC1=C(c2ccc(C)c(C)c2)S(=O)(=O)NC1=NCCc1cccs1
    -1.6	0.38
Cc1cc2nc(NCCO)n(CCOc3ccccc3)c2cc1C
    0.34	0.57
COc1ccc(-n2nnc(-c3nc(-c4ccc(Cl)cc4)no3)c2C)cc1OC
    /	-0.68
OCCNC(=S)NC1CCCC1
    -2.9	/
CN1CCOc2ccc(S(=O)(=O)NCc3cccs3)cc21
    /	2.4
Cc1cc(O)cc(O)c1C(=O)O
    /	1.4
CCN(CC)CCNC(=O)Nc1cn(CC(C)C)c(=O)c2ccccc12
    /	2.5
CC(C)(C)NS(=O)(=O)c1ccc2c(c1)CCCC(=O)N2
    /	1.6
CC(Oc1ccccc1)C(=O)OCc1cc(=O)n2nc(C(C)C)sc2n1 (stereo not drawn)
    /	0.33
CC1Sc2ccc(S(=O)(=O)C(C)CC(=O)NC3CCCc4ccccc43)cc2NC1=O (stereo not drawn)
    /	-2.1
CC(C)c1ccc(C2/C(=C(\O)c3ccccc3)C(=O)C(=O)N2Cc2cccnc2)cc1 (stereo not drawn)
    -2.7	0.21
Cc1scc(CCNC(=O)NCC2CCCO2)c1C (stereo not drawn)
    /	0.59
Brc1ccc(C2CC(c3cccs3)n3nnnc3N2)cc1 (stereo not drawn)
    /	0.61
CCCNS(=O)(=O)c1ccc2c(c1)NC(=O)C(C)S2 (stereo not drawn)
    /	2.2
Nc1ccc(C(=O)CC2(O)C(=O)Nc3ccc(Cl)cc32)cc1 (stereo not drawn)
    0.23	0.36
CC(C)Cn1c(-c2ccncc2)n[nH]c1=S
    -1.9	/
O=C(Nc1ccc(F)cc1)N1CCSc2ccccc21
    /	2.1
CN(C1CCCCC1)S(=O)(=O)c1ccc(CN2C(=O)c3cccnc3C2=O)s1
    /	0.51
CCCCN(CCNC(=O)c1nn(C)c2c1CS(=O)(=O)c1ccccc1-2)Cc1ccco1
    -2.3	0.76
Cc1ccc(/C=C/c2nc3ccccc3[nH]2)cc1
    -1.9	/
O=C(Nc1cccc2cccnc12)c1sc2ccccc2c1Cl
    -1.7	1.9
Cc1nc(S(=O)(=O)Nc2ccc(F)cc2Cl)cn1C
    /	1.5

A portion of the results above, as a working copy:
Fields: CDC25B CDK2 inh	TAR Tat displ
COc1ccc2c(c1)CC(NC(=O)N1CCN(C(=O)c3ccco3)CC1)CO2 (stereo not drawn)
    /	1.1
O=C(c1cnn2c3c(cnc12)CCCCCC3)N1CCN(c2ccccc2)CC1
    /	-0.34
CCNC(=O)c1cc2n(n1)CC(C)(C(=O)NCCC(C)C)N(C)C2=O (stereo not drawn)
    /	-0.55

The main list resumes, repeating the 4 entries before the break.
Fields: CDC25B CDK2 inh	TAR Tat displ
CCCCN(CCNC(=O)c1nn(C)c2c1CS(=O)(=O)c1ccccc1-2)Cc1ccco1
    -2.3	0.76
Cc1ccc(/C=C/c2nc3ccccc3[nH]2)cc1
    -1.9	/
O=C(Nc1cccc2cccnc12)c1sc2ccccc2c1Cl
    -1.7	1.9
Cc1nc(S(=O)(=O)Nc2ccc(F)cc2Cl)cn1C
    /	1.5
O=c1ccc(N2CCNCC2)nn1-c1ccc(Cl)cc1
    0.14	0.86
COCCCNC(=O)Cn1c(C)nc2onc(C)c2c1=O
    /	1.5
O=C(OCCN1CCOCC1)c1cnn2c(C(F)(F)F)cc(-c3ccc(F)cc3)nc12
    0.08	1.9
CCCCOc1ccc(S(=O)(=O)n2nc(C)c(S(=O)(=O)N3CCCC3)c2C)cc1
    /	-0.16
COc1cscc1C(=O)NC(=O)Nc1ccc(F)cc1F
    -1.6	/
Cc1cc(C)c(-c2n[nH]c3c2C(c2cccc(Cl)c2)N(Cc2ccco2)C3=O)c(O)c1 (stereo not drawn)
    -0.95	-0.59
COC(=O)c1c(SCC(=O)Nc2cc(OC)ccc2OC)[nH]c2ccc(Cl)cc2c1=O
    /	-7
O=C(COC(=O)c1ccccc1NC(=O)c1ccc(Cl)cc1)c1ccccc1
    -1.8	/
CCC(C(=O)NCc1ccco1)n1nc(C)n2c(cc3occc32)c1=O (stereo not drawn)
    0.61	1.1
OCCSc1nnc(COc2ccc(Br)cc2)n1Cc1ccccc1
    1.4	0.96
Cc1noc2ncnc(NCCc3ccc(S(N)(=O)=O)cc3)c12
    /	-0.36
Cc1ccc(C2=Nn3c(nnc3-c3cccs3)SC2)cc1
    /	0.14
CCN1CN(Cc2ccco2)CNC1=S
    0.27	/
Cc1nn(Cc2nc(-c3cccc([N+](=O)[O-])c3)cs2)c(C)c1Br
    0.65	/
Cc1cccnc1-n1c(C)c(C)c2c1ncn1nc(-c3ccccc3)nc21
    0.04	0.55
O=C(c1oc(=O)c2ccccc2c1-c1ccccc1)N1CCCN(Cc2ccccc2F)C1
    1.2	1.4
COc1ccc(CCNC(=O)C(Sc2ccccc2N)c2ccccc2)cc1OC (stereo not drawn)
    -1.1	/
O=C(O)C1CC2C=CCC(C1)C2=O (stereo not drawn)
    -1.6	/
Cc1scc(CN2CCN(c3ccccc3F)CC2)c1C
    /	1.9
CSCCC(NS(=O)(=O)c1ccc2c(c1)oc(=O)n2C)C(=O)Nc1ccc(F)cc1 (stereo not drawn)
    -1	2.2
Cc1cc(C)n(-c2cc(NCc3ccc(N(C)C)cc3)ncn2)n1
    /	0.8
CN1C(=O)c2cc(C(=O)NCCCN3CCCCC3)nn2CC1(C)C(=O)NC1CCCCC1 (stereo not drawn)
    /	0.16
Cc1ccc2nc(-n3nc(C)c4c3NC(=O)CC4c3cc(F)ccc3F)sc2c1 (stereo not drawn)
    /	0.76
COC(=O)c1ccc(C2C3=C(CC(C)(C)CC3=O)Nc3cc(OC)cc(OC)c32)cc1 (stereo not drawn)
    3.1	0.46
CC(CCc1ccco1)NC(=O)c1cc2oc3ccccc3c2n1C (stereo not drawn)
    -0.32	/

Screening results (PubChem BioAssay)
